Screening data from PubChem.
StopGo reporter – FMDV 2A StopGo reporter, luciferase signal | human cells with a luciferase reporter of 2A StopGo recoding; control for the full effect not named in the record | Potency, µM (series often up to 57.9 µM), for the others: at the top dose signal change, negative = less light | 410,000 tested, 1.2% active; active = well fitted falling curve with a large enough effect; inconclusive = small, poorly fitted or top-dose-only effect; inactive = no such curve, though single readings can be large or run the other way; tested in HEK293T cells; note: % is set by controls: 0 for no effect and ±100 for the full control effect; nearly all actives have a fitted effect of over 45% in size; luciferase light after 4 h
NS1 inh – blocks influenza NS1 protein function | S. cerevisiae slowed by influenza A NS1, growth recovery by OD600 | Potency, µM (top dose mostly 46.1 µM), for inactives: top-dose activity, positive = more growth | 270,000 tested, 0.4% active | AID 2326; note: actives are rising curves; nearly all actives have a fitted effect of over 50% in size
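In this qHTS, NS1 from influenza A is expressed in budding yeast, where it slows growth. Cells are switched from glucose to 2% galactose medium (pH 6.0, -URA), treated with compound, and growth recovery is read at OD600.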
MARV entry inh – Marburg virus entry inhibition; Marburg virus pseudotyped entry inhibition, cell reporter; control for the full effect not named in the record; about a third of the inactives were read at about 46 µM; Potency, µM (top dose mostly 37.8 µM), for the others: at the top dose activity change, negative = inhibition, hits mostly inhibitors; 300,000 tested, 1.8% active; active = well fitted inhibition curve with a large enough effect; inconclusive = small, poorly fitted or top-dose-only effect, or effect the other way; inactive = flat fitted curve, though single readings scatter; tested in HEK293 cells; about a fifth of its hits are not listed in these tables; note: % is set by controls: 0 for no effect and ±100 for the full control effect; luciferase read-out
Cruzain noTriton – blocks cruzain activity in detergent-free assay | Potency, µM, without a hit: max response, negative = inhibition, most hits filed as inhibitors | P25779 | purified cruzain, Z-FR-AMC fluorescence, no detergent | 200,000 tested, 2.3% active; active = well fitted curve in the direction sought with a large enough effect; inconclusive = small, poorly fitted or top-dose-only effect, or another doubt; inactive = no such curve, though single readings can be large; an effect the other way counts as inactive or inconclusive;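 note: plate controls were enzyme without inhibitor for no effect and buffer without enzyme for full effect; nearly all actives have a fitted effect of over 40% in size; top concentration of the series not given in the record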
Target sequence (P25779 123-467 limits assumed): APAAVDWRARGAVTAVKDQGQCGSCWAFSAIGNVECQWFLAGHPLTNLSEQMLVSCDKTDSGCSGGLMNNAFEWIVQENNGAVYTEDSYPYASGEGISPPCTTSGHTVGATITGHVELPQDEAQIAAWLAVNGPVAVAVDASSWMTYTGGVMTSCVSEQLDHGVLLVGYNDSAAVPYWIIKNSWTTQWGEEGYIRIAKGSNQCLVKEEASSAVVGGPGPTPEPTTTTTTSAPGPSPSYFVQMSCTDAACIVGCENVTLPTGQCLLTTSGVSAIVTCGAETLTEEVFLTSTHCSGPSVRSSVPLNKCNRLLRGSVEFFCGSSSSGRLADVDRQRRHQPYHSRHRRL
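Purified cruzain at 1.5 nM, pre-incubated 15 min with compound at room temperature in 100 mM sodium acetate pH 5.5, 5 mM DTT, 0.00005% Triton X-100. Reaction started with 2 uM Z-FR-AMC; AMC fluorescence increase over 60 s gives rate.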
SARS PLP yeast – blocks SARS-CoV papain-like protease in a yeast assay; S. cerevisiae expressing SARS-CoV PLpro, growth rescue; control for the full effect not named in the record; Potency, µM (highest dose often 32.9 µM), without a hit: at the highest dose activity, positive = growth rescue; 330,000 tested, 0.19% active; AID 485353; note: 0% is about no effect; nearly all actives have a fitted effect of over 55% in size; growth read by luminescence after 48 h
Cruzain inh Det – blocks cruzain activity in presence of Triton detergent | 200,000 tested, 0.43% active | AID 1478 | Potency, µM, for inactives: max response, negative = inhibition, usual class: inhibitors | purified cruzain, Z-FR-AMC fluorescence, 0.01% Triton | P25779; active = well fitted curve in the direction sought with a large enough effect; inconclusive = small, poorly fitted or top-dose-only effect, or another doubt; inactive = no such curve, though single readings can be large; an effect the other way counts as inactive or inconclusive;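 note: plate controls were neutral wells for no effect and buffer without enzyme for full effect; nearly all actives have a fitted effect of over 40% in size; top concentration of the series not given in the record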
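Compounds were screened in titration against cruzain (1.5 nM) with 0.01% Triton X-100 to counter colloidal aggregation. Activity was the AMC fluorescence increase over 60 s after adding 2 uM Z-FR-AMC at pH 5.5.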
RE007 growth inh – less growth of the S. pombe RE007 Vpr strain; S. pombe RE007 Vpr strain, BacTiter-Glo ATP luminescence, 24 h; control for the full effect not named in the record; 360,000 tested, 0.21% active; Potency, µM (highest dose often 92.2 µM), for inactives: top-dose activity change, negative = less growth; AID 651644; active = well fitted falling curve with a large enough effect; inconclusive = small, poorly fitted or top-dose-only effect; inactive = no such curve, though single readings can be large or run the other way;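 note: % is set by controls: 0 for no effect and ±100 for the full control effect; nearly all actives have a fitted effect of over 50% in size; the assay follows cell death caused by Vpr and the record does not say whether a fall means rescue or toxicity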
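Fission yeast strain RE007, carrying one chromosomally integrated HIV-1 vpr copy, was seeded at OD 0.01 in PMG+AL medium with 23 nL pinned compound. After 24 h at 30 °C and 99% humidity, viability was read by BacTiter-Glo luminescence.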
Lassa entry inh – inhibitors of Lassa virus binding or cell entry; Potency, µM (titrated, usually from 37.9 µM), for the others: at the highest dose activity change, negative = inhibition, actives largely listed as inhibitors; 300,000 tested, 1.2% active; Lassa virus pseudotype entry inhibition, cell reporter; control for the full effect not named in the record; active means well fitted inhibition curve with a large enough effect; inconclusive means small, poorly fitted or top-dose-only effect, or effect the other way; inactive means flat fitted curve, though single readings scatter; tested in HEK293 cells; note: % is set by controls: 0 for no effect and ±100 for the full control effect; nearly all actives have a fitted effect of over 50% in size; luciferase read-out
An asterisk follows results filed as active; ? = inconclusive; . = not tested or not shown; & = joins results of further samples; [ ] = dose if it differs, or a comment. Unless noted, calls come from the whole dose curve; as a rule, active means well fitted rising curve with a large enough effect; inconclusive means small, poorly fitted or top-dose-only effect; inactive means no such curve, though single readings can be large or run the other way. Potency is the fitted concentration of half-maximal effect.

SMILES	StopGo reporter	NS1 inh	MARV entry inh	Cruzain noTriton	SARS PLP yeast	Cruzain inh Det	RE007 growth inh	Lassa entry inh
O=c1c2c(nc3nc(NCc4cccc(Cl)c4)[nH]n13)CCC2	0.8%	.	1.5%[46.1 µM]	.	5.3%	.	-9.9%	-9.1%
CCSc1nnc(NC(=O)c2ccccn2)s1	0.0%	-82.5%	?	8.9%	-12.3%	-6.6%	11.2µM*	?
O=S(=O)(c1cccs1)N1CCN(CC(O)COc2cc(Cl)ccc2Cl)CC1 (stereo not given)	?	-40.0%	?	9.5%	-23.1%	-6.6%	-18.1%	?
Cn1ncc2c(NNC(=O)Cc3ccccc3)ncnc21	-32.4%	0.9%	-12.7%	-5.6%	-3.3%	2.8%	13.1%	17.6%
O=C(Nc1cccc(-c2nn[nH]n2)c1)c1csc2c1CCCC2	29.8%	16.0%	5.7%	.	?	.	-3.2%	0.4%
COc1ccccc1CNC(=O)C1CCCN(c2nnc(C)c3c(C)n(-c4ccccc4)nc23)C1 (stereo not given)	-11.6%	.	.	10.3%	.	-6.7%	.	-13.9%[46.1 µM]
O=C(NCC12CC3CC(CC(C3)C1)C2)c1cc2n(n1)C(C(F)(F)F)CC(c1ccco1)N2 (stereo not given)	0.0%	-60.2%	?	14.6%	-4.9%	-9.1%	-2.6%	-28.2%
CCOC(=O)N1CCN(C(=O)CSCC(=O)Nc2nc(-c3ccc(OC)cc3)cs2)CC1	?	-10.6%	?	?	3.6%	-3.1%	3.3%	-18.5%
O=C(O)CCNC(=O)OCC1c2ccccc2-c2ccccc21	-12.7%	5.7%	.	.	0.1%	.	0.3%	.
NNC(=O)c1ccc(Cn2cc(Cl)cn2)o1	-20.0%	-0.1%	.	.	-0.9%	.	-3.1%	.
CCOc1cccc(N2CCN(CCNC(=O)Nc3ccc(C)cc3)CC2)c1C	?	-5.8%	.	.	-5.3%	.	4.6%	.
Cc1nc2cc(C(=O)OCC(=O)NC34CC5CC(CC(C5)C3)C4)ccc2n1-c1ccccc1	?	-8.2%	-2.3%	-10.4%	-2.7%	-6.5%	-0.5%	-1.2%
Cc1ccc(C)c(NC(=S)c2ccc3ccccc3n2)c1	29.7%	22.1%	?	-14.8%	2.5%	-7.1%	5.2%	?
COc1cc(NC(=O)CNC(=O)Cn2c(C)cc3ccccc3c2=O)cc(OC)c1OC	-4.7%	2.6%	-4.4%[46.1 µM]	.	0.5%	.	2.2%	-16.9%[46.1 µM]
Cc1nc(N)nc(Nc2ccc(Cl)cc2)c1Br	12.6%	-76.0%	26.0%	-2.2%	-8.5%	-1.5%	-27.3%	?
O=C(COc1cc2oc(=O)c3c(c2cc1Cl)CCCC3)NCc1cccnc1	-10.0%	6.5%	?	.	5.0%	.	0.9%	7.9%[46.1 µM]
c1ccc(-n2nnnc2-c2cccnc2)cc1	-4.6%	.	14.8%[46.1 µM]	.	5.2%	.	-11.9%	2.8%
CCN(C(=O)c1ccc(Cl)c([N+](=O)[O-])c1)c1ccccc1	-24.5%	2.4%	-5.6%[46.1 µM]	.	0.6%	.	0.3%	4.8%
CCOC(=O)c1c(C)[nH]c(C(=O)COC(=O)C(C)N2C(=O)C3CCCCC3C2=O)c1C (stereo not given)	?	-3.3%	?	?	3.7%	-4.6%	8.6%	-6.9%
O=C(CCCCCNC(=S)Nc1ccc(Cl)cc1)C[N+](=O)[O-]	5.0%	-0.6%	4.7%[46.1 µM]	.	-0.5%	.	4.8%	-6.3%
Cc1ccsc1C(=O)N/N=C/C=C/c1ccccc1[N+](=O)[O-]	20.6%	-6.7%	13.0%	-18.9%	7.6%	-9.9%	-17.1%	7.3%
Cc1ccccc1CN1CCN(C(=O)Cc2ccccc2)CC1	-3.9%	2.1%	-2.0%[46.1 µM]	.	-1.0%	.	-20.7%	8.7%[46.1 µM]
COC(=O)c1ccc(NC(=O)C2CCCO2)cc1 (stereo not given)	48.6%[activator]	-6.2%	?	1.6%	1.2%	3.1%	6.7%	?
FC(F)C(F)(F)c1cc(-c2ccccc2)n[nH]1	-0.9%	-4.1%	0.9%	.	0.9%	.	-17.9%	26.5%
O=C(Cc1cccc2ccccc12)NC(=S)Nc1cccc(C(=O)O)c1	4.6%	18.3%	2.1%[46.1 µM]	.	8.3%	.	5.8%	-18.0%
Nc1ccccc1SCC1CSc2nc3ccccc3c(=O)n21 (stereo not given)	-10.8%	2.0%	.	.	0.7%	.	-1.0%	.
CCn1cc(C(=O)O)c(=O)c2cc(F)c(N/N=C/c3ccccc3[N+](=O)[O-])cc21	20µM*	2.2%	11.8%	-6.9%	-16.2%	-5.3%	-17.6%	?
CCOC(=O)Cc1csc(NC(=O)Cc2ccc(C)cc2)n1	-6.3%	.	14.4%[46.1 µM]	.	-5.2%	.	3.9%	-6.7%
Cc1ncc(CN=Cc2ccc(Cl)cc2)c(N)n1	-9.0%	-1.0%&4.0%	.	9.1%	1.5%	3.8%	259.9%	.
CCOC(=O)Cn1c(=O)cc(-c2ccccc2)c2c(C)nn(C)c21	-7.9%	.	.	?	.	-6.9%	.	-20.6%[46.1 µM]
COc1ccc2[nH]cc(C(=O)CN(C)CCc3ccc(OC)c(OC)c3)c2c1	-16.1%	9.2%	?	5.5%	6.7%	-1.3%	-6.0%	-0.3%
O=C1NC(c2ccccc2)=NC1(NS(=O)(=O)c1ccccc1)C(F)(F)F (stereo not given)	22.6%	-15.8%	6.4%	-1.5%	4.0%	2.5%	11.5%	-7.9%
O=C(NCC(c1cccnc1)N1CCN(c2ccccc2F)CC1)c1ccco1 (stereo not given)	?	4.6%	.	-2.0%	-2.2%	4.8%	-10.3%	.
CCOc1cc(C(=O)OCC(=O)NCc2ccco2)cc(OCC)c1OCC	?	3.0%	-24.9%	-1.8%	6.0%	-1.7%	0.9%	-1.7%
C=CCNC(=O)c1cc(Cl)cc(Cl)c1	8.9%	-0.9%	5.5%[46.1 µM]	.	-4.3%	.	44.7%	8.3%
Cc1cccc(NC(=O)/C=C/c2ccc(Cl)cc2)n1	-22.1%	-12.6%	?	-5.4%	-26.1%	-8.5%	-14.4%	?
COc1ccc(S(=O)(=O)N(C)Cc2nc(-c3cccc(C)c3)no2)cc1	-20.7%	.	-14.6%[46.1 µM]	1.4%	.	-6.2%	.	-7.0%[46.1 µM]
COc1ccc(CSc2nncn2C)cc1[N+](=O)[O-]	13.2%	-0.3%	-14.6%	-9.4%	17.7%	-0.1%	-6.2%	-2.1%
N#C/C(=C\c1cccnc1)C(=O)Nc1ccccc1[N+](=O)[O-]	12.4%	23.1%	.	.	-3.4%	.	4.6%	.
CCCS(=O)(=O)N1CCN=C1SCc1cccc(C)c1	-17.4%	.	5.2%[46.1 µM]	.	1.5%	.	-1.0%	-11.7%[46.1 µM]
O=C(NCCS(=O)(=O)N1CCN(c2ccccc2)CC1)C1CC1	-3.2%	.	25.3%	.	-0.6%	.	-4.1%	4.7%
O=C(O)C(Cc1ccccc1)N1C(=O)/C(=C/c2ccccc2)SC1=S (stereo not given)	-15.5%	-5.4%	10.9%	0.4%	-12.7%	-13.2%	3.8%	?
O=C(Nc1cnn(Cc2ccc(Cl)cc2)c1)C1CCCC1	31.5%[activator]	-1.2%	2.7%	-0.1%	-0.6%	-8.5%	10.5%	-5.1%
Clc1ccc(-c2cn3c(n2)-c2ccccc2C3)cc1Cl	-21.5%	-16.3%	?	?	-51.5%	-2.3%	2.0%	?
CCc1ccccc1N(CC(=O)NCc1ccco1)C(=O)c1snc(C(N)=O)c1N	-24.8%	-5.8%	-14.8%	-9.1%	-0.7%	-6.6%	0.0%	-20.0%
O=C(C1CCCN(S(=O)(=O)c2ccc(F)cc2)C1)N1CCCC1 (stereo not given)	-20.7%	-10.9%	19.9%	0.8%	-9.6%	4.0%	7.8%	0.6%
O=C1C2CCC(C2)C1CN1CCOCC1 (stereo not given)	10.0%	.	-17.7%[46.1 µM]	.	.	.	-3.8%	4.5%[46.1 µM]
O=C(NNC(=O)[C@H]1CC=CC[C@H]1C(=O)O)c1ccc(Cl)cc1Cl	34.3%[activator]	3.7%	-0.3%[46.1 µM]	.	2.0%	.	8.7%	-0.8%
N/C(COc1ccc(Cl)cc1Cl)=N\NS(=O)(=O)c1ccccc1	21.6%	-1.1%	0.3%	5.6%	-3.2%	-3.8%	-5.1%	20.6%
CC1=CC(C)=Nc2ccc(C)cc2N1	89.2%&58.2%[activator]	-2.5%&4.1%	7.6%&19.1%	-18.0%&1.9%	-2.7%&-2.9%	-2.6%&0.5%	-7.5%&-10.6%	?

(cont.)
SMILES	StopGo reporter	NS1 inh	MARV entry inh	Cruzain noTriton	SARS PLP yeast	Cruzain inh Det	RE007 growth inh	Lassa entry inh
CCN(CC)S(=O)(=O)c1cc(NC(=O)CSCc2c(C)noc2C)ccc1C	-15.2%	.	?	.	0.5%	.	-1.6%	2.82µM*
Cc1cc2ncn(CC(C)C)c2cc1C	?	-0.8%	-1.3%[46.1 µM]	.	-1.1%	.	-1.8%	17.1%[46.1 µM]
CC(C)c1ccc(N(CC(=O)NCc2ccco2)C(=O)CCC(=O)Nc2ccccn2)cc1	-3.0%	14.2%	-10.1%[46.1 µM]	.	-0.6%	.	5.0%	.
CC1CCc2sc(C(=O)NCC3CCCO3)cc2C1 (stereo not given)	26.6%	.	5.2%[46.1 µM]	.	-3.2%	.	-16.0%	?
CC1(C)CC(=O)c2cnc(NC(=O)CSc3nc4ccccc4o3)nc2C1	-18.5%	-1.8%	9.9%	-3.8%	19.1%	1.1%	12.2%	?
CCCCn1c(SCN2C(=O)c3ccccc3C2=O)nc2cc(S(N)(=O)=O)ccc21	-6.8%	-8.3%	?	-15.3%	1.2%	-4.5%	21.4%	1.2%
O=C(COc1coc(CN2CCc3ccccc3C2)cc1=O)Nc1ccc([N+](=O)[O-])cc1	-16.0%	.	-1.1%	.	-7.3%	.	-7.2%	5.1%
CCN1C(=O)/C(=C/N2CCc3ccccc32)SC1=S	31.5%[activator]	-10.9%	0.3%	?	-1.9%	2.5%	0.0%	?
COc1ccc(NC(=O)CCc2nnc3ccc(NCc4ccc5c(c4)OCO5)nn23)cc1	-5.0%	-3.2%	.	.	14.9%	.	-4.4%	.
O=c1[nH]c(=S)n(-c2cccc(Cl)c2)c(O)c1/C=N/N1CCOCC1	1.4%	0.4%	.	.	0.1%	.	2.4%	.
